Screening results as filed in PubChem.
A488 fluor: compound autofluorescence in A488 spectral region; compound autofluorescence, A488 spectral region, dye equivalency; active compounds read high; max dye equivalency, M; 59,000 tested, 0.1% active; active = above 10 nM dye equivalent; inconclusive = 1 to 10 nM; inactive = 1 nM or less; about half of its hits are not listed in these tables;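 note: highest value over a series up to 38 µM; compound alone in buffer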
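Compound autofluorescence was read in 100 mM Tris pH 8.0 after 15 min at room temperature, ex 480 nm/em 540 nm. Intensities were converted to A488 dye-equivalent concentration using an on-plate six-point A488 standard curve.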
A647 autofl: compound autofluorescence in A647 spectral region | Compound fluorescence, A647 channel (570/671 nm), Tris buffer | max dye-equivalent concentration, M | 59,000 tested, under 10 active | AID 592; active means above 1 µM dye equivalent; inconclusive means 0.1 to 1 µM; inactive means 0.1 µM or less;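 note: values scaled relative to a standard on each plate; highest value over a series up to 38 µM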
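Fluorescence read (570 nm ex, 671 nm em) after 15 min RT incubation of compounds in 100 mM Tris buffer, pH 8.0; values expressed as dye-equivalent concentration against a six-point A647 standard series on each plate.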
AID923: qHTS Assay for Allosteric/Competitive Inhibitors of Caspase-1: Spectroscopic Profiling in AFC Spectral Region; AID 923, 2007; compound fluorescence, AFC spectral region (405/520 nm); almost no hit is shown here; Potency, µM (titrated, usually from 57.5 µM), without a hit: at the highest dose fluorescence increase, most hits filed as activators; 75,000 tested, 1.1% active; active = well fitted activation curve with a large enough effect; inconclusive = small, poorly fitted or top-dose-only effect;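 note: potency is the fitted concentration of half-maximal effect; 0% is about no effect; scaled to a free AFC standard on each plate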
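Compound autofluorescence profiled at 405 nm ex/520 nm em during kinetic caspase 1 run (50 nM enzyme, 5 uM Ac-WEHD-AFC, HEPES pH 7.5, 10 mM DTT). Titration up to 57 uM; baseline from regression intercept, normalized to AFC standard curve.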
Resorufin autofl: resorufin region autofluorescence; Compound fluorescence, resorufin region 547/598 nm, buffer; active compounds read high; max dye-equivalent concentration, M; 59,000 tested, 0.04% active; AID 588; active = above 10 nM dye equivalent; inconclusive = 1 to 10 nM; inactive = 1 nM or less; a few of its hits are not listed in these tables; note: highest value over a series up to 38 µM
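Read-out: intrinsic compound fluorescence at ex 547/em 598 nm after 15 min at RT in pH 8.0 Tris (100 mM). Values expressed as resorufin-equivalent concentration from per-plate standard series.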
TSHR agonist: agonists of human thyroid stimulating hormone receptor; P16473; HEK293-CNG-TSHR cells (CNG channel as cAMP sensor), membrane potential dye, cAMP; Potency, µM (top dose mostly 57.1 µM), for inactives: top-dose activation, most hits filed as activators; 73,000 tested, 0.48% active; active = well fitted activation curve of enough size with the parental cells flat; inconclusive = any curve in the parental cells; inactive = parental cells flat and receptor cells flat or falling; note: potency is the fitted concentration of half-maximal effect; % of control where 0% means no effect; weak receptor curves with flat parental cells got no call and are not listed
Target sequence (P16473 whole entry, looked up): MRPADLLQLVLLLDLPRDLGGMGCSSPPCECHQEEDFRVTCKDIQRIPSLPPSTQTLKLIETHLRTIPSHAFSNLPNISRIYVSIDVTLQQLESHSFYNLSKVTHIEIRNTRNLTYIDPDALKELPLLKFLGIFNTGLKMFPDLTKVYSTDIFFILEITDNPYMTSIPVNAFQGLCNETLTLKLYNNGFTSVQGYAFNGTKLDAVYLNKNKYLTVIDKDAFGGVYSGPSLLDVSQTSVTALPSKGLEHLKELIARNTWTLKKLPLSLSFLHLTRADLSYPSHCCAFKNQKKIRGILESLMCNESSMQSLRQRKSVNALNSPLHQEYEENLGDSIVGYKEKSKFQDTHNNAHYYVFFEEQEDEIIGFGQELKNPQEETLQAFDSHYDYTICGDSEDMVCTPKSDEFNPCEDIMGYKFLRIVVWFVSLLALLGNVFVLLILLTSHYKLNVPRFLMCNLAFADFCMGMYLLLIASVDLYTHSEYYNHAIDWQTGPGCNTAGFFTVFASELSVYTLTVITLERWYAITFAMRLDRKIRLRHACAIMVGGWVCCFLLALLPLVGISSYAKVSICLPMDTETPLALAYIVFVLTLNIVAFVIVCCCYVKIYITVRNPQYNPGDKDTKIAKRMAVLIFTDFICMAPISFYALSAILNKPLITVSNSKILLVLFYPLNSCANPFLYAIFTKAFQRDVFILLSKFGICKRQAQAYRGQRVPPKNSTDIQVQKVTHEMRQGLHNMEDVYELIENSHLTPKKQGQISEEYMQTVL
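cAMP rise detected as CNG-channel membrane depolarization by fluorescent dye (emission 590 nm), 30 min after compound, following 60 min dye loading containing 100 uM RO 20-1724 at room temperature. Cells: TSHR/CNG HEK 293, with parental CNG HEK 293 as control.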
Active calls of the source: *; i = inactive; ? = inconclusive; . = not tested or not shown; & = joins results of further samples; [ ] = remark or other dose. Only part of the results is shown (hit frequency here may not be typical).

The line under a structure holds: A488 fluor, A647 autofl, AID923, Resorufin autofl, TSHR agonist
- Fc1ccc(-c2nc3n(n2)Cc2ccccc2-3)cc1
  i, 4.6e-09, 0.1%, i, 10%
- CCC(NC(=O)Nc1ncccc1C)(C(F)(F)F)C(F)(F)F
  i, 4.2e-08, ., i, .
- Cc1nc2ccccc2nc1OCC(=O)N1CCN(c2ccccc2)CC1
  i, 2.3e-08, -1.4%, i, 7%
- CCc1nc2ccccc2n(CCOCCOCCn2c(=O)c(CC)nc3ccccc32)c1=O
  i, 4e-09, 2.2%, i, 18%
- CCN(CC)CCOC(=O)[C@@H](c1ccccc1)C1CCCCC1
  i, 4.2e-08, -1.0%[25.7 µM], i, .
- CC(C)C(=O)Nc1nc2c(ncn2C2CC(O)C(CO)O2)c(=O)[nH]1 (stereo not drawn)
  ., ., 3.2%, ., -8%
- Cn1c(=O)oc2cc(S(=O)(=O)N3CCC(N4CCCCC4)CC3)ccc21
  ., ., -4.1%, ., 3%
- O=C(CCCNS(=O)(=O)c1cccs1)N1CCN(c2ccc(F)cc2)CC1
  i, 2.8e-08, -0.3%, i, 0%[11.4 µM]
- COc1cccc(C2C(C(=O)c3ccc(C)o3)=C(O)C(=O)N2CCCN(C)C)c1 (stereo not drawn)
  ., ., 1.1%, ., -15%
- CCOC(=O)C1CCCN(c2c(NCCCN(C)c3ccccc3)c(=O)c2=O)C1 (stereo not drawn)
  ., ., -0.1%, ., 10%
- COCc1nnc(NC(=O)CSc2ccccc2)s1
  i, 5.2e-09, 1.0%, i, ?
- Cc1nc2ccccn2c1/C(O)=C1\C(=O)C(=O)N(CCN2CCOCC2)C1c1cccnc1 (stereo not drawn)
  i, 1.1e-08, -0.3%, i, ?
- Cc1ccc(SCCC(=O)N2CCC(C(N)=O)CC2)cc1
  i, 5.5e-09, -0.2%, i, 1%
- N#C/C(=C\c1ccc(O)c(O)c1)C(=O)NCCCNC(=O)/C(C#N)=C/c1ccc(O)c(O)c1
  i, 5.7e-09, -1.9%, i, 4%
- Cc1cc2ccccc2n1CCNC(=O)c1ccc(S(=O)(=O)N2CCOCC2)cc1
  i, 4.9e-09, 0.9%, i, -2%
- CC(C)n1c(SCC(=O)N2c3ccccc3Sc3ccccc32)nc2c1c(=O)n(C)c(=O)n2C
  i, 8.6e-09, -2.1%, i, ?
- O=C(Oc1ccccc1)N1CCC2(CCCN(c3ccccn3)C2)CC1
  i, 1.6e-08, 0.7%, i, ?
- Cc1csc(NC(=O)c2cccc(S(=O)(=O)N3CCCCC3)c2)n1
  i, 1e-09, 0.5%, i, 10%
- COc1ccc(N2CCN(CCNC(=O)CCS(=O)(=O)c3cccc4nsnc34)CC2)cc1
  i, 1e-09, 0.6%, i, -4%
- CCC(=O)N1CCN(c2ccc(NC(=O)c3cc4ccccc4o3)cc2Cl)CC1
  i, 3.1e-09, 1.1%, i, ?

Profiles from above. Values in the order: A488 fluor | A647 autofl | AID923 | Resorufin autofl | TSHR agonist
`COCc1nnc(NC(=O)CSc2ccccc2)s1` reads i | 5.2e-09 | 1.0% | i | ?
`Cc1csc(NC(=O)c2cccc(S(=O)(=O)N3CCCCC3)c2)n1` reads i | 1e-09 | 0.5% | i | 10%
`CCOC(=O)C1CCCN(c2c(NCCCN(C)c3ccccc3)c(=O)c2=O)C1` (stereo not drawn) reads . | . | -0.1% | . | 10%
`CCC(=O)N1CCN(c2ccc(NC(=O)c3cc4ccccc4o3)cc2Cl)CC1` reads i | 3.1e-09 | 1.1% | i | ?

The list continues.
The line under a structure holds: A488 fluor, A647 autofl, AID923, Resorufin autofl, TSHR agonist
- CCOC(=O)CSc1nc2cc(C(=O)NCC3CCCO3)ccc2c(=O)n1Cc1ccco1 (stereo not drawn)
  i, 1e-09, 0.9%, i, 6%
- Cc1ccc(S(=O)(=O)N[C@@H]2COC(=O)C/C=C\[C@H](C)COC(=O)N[C@@H](C)C(=O)C/C=C\[C@H]2C)cc1
  ., ., 0.1%[11.5 µM], ., ?
- CC(=O)N(CC1CCCO1)C1(C(=O)NC2CCCC2)CCCCC1 (stereo not drawn)
  i, 1e-09, 1.4%, i, -4%
- Cc1nnc2n(Cc3ccccc3)c(=O)c3c4c(sc3n12)CN(Cc1ccccc1)CC4
  i, 2.8e-09, ., i, .
- CCCCC(=O)N(c1ccc(C)c(C)c1)C1C=CS(=O)(=O)C1 (stereo not drawn)
  i, 1e-09, -1.9%, i, 0%[11.4 µM]
- Cn1c(=O)[nH]c(=O)c2c1nc(N1CCCCCC1)n2CCSc1nc2ccccc2[nH]1
  i, 1.4e-09, -0.4%, i, -23%
- COc1cc(Cl)c(C)cc1NC(=O)CSC
  i, 9.9e-09, -0.7%, i, 11%
- CNCC[C@H](Oc1ccccc1OC)c1ccccc1
  i, 4.7e-08&6.3e-09, 0.6%, i, ?
- O=C(O)c1cccc(C(=O)O)c1S(=O)Cc1ccccc1 (stereo not drawn)
  i, 6e-09, 1.7%[11.5 µM], i, 1%[11.4 µM]
- COc1ccccc1OCc1ccc(C(=O)Nc2ccncc2)o1
  i, 3.4e-08, -0.4%, i, 12%
- O=C(COc1ccccc1)Nc1ccc(S(=O)(=O)NCc2ccco2)cc1
  i, 1e-09, 2.6%, i, 4%
- CCn1c(SCC(=O)Nc2cc(NC(C)=O)ccc2OC)nnc1-c1ccccn1
  i, 1e-09, 0.2%, i, 0%
- O=C(NCC(c1cccnc1)N1CCN(c2ccc(F)cc2)CC1)c1ccc(F)cc1 (stereo not drawn)
  i, 3.7e-08, 1.2%, i, 18%
- COC(=O)c1cc(-c2c(C)oc3cc(O)ccc3c2=O)c(C)o1
  i, 2.1e-08, 1.0%, i, 4%
- O=S(=O)(Cc1ccccc1)N1CCCC1
  ., ., -0.9%, ., 4%
- CCOC(=O)CSc1nnc(CNC(=O)c2cc(OC)c(OC)c(OC)c2)n1C
  i, 2.2e-08, 0.5%, i, ?
- Cc1cc(C)c2cc(CN(CCO)C(=O)Nc3ccc(Cl)cc3)c(=O)[nH]c2c1
  i, 3.4e-08, -0.2%, i, 4%
- Cn1c(=O)c2c(ncn2CC(O)CNc2ccc(Br)cc2)n(C)c1=O (stereo not drawn)
  i, 1e-09, 1.3%, i, -18%
- O=c1/c(=C/c2ccco2)sc2nc(-c3ccccc3Br)nn12
  i, 3.1e-09, -1.3%, i, -19%
- CCn1cc(C(=O)N2CCN(C(=O)c3ccco3)CC2)c2cc(OC)c(OC)cc2c1=O
  i, 1e-09, 0.0%, i, 0%[11.4 µM]

Continued; the last 2 above are carried over.
The line under a structure holds: A488 fluor, A647 autofl, AID923, Resorufin autofl, TSHR agonist
- O=c1/c(=C/c2ccco2)sc2nc(-c3ccccc3Br)nn12
  i, 3.1e-09, -1.3%, i, -19%
- CCn1cc(C(=O)N2CCN(C(=O)c3ccco3)CC2)c2cc(OC)c(OC)cc2c1=O
  i, 1e-09, 0.0%, i, 0%[11.4 µM]
- CC1(C)Cc2c(C#N)c(NCCN3CCOCC3)nc(-c3ccco3)c2CO1
  i, 1e-09, ., i, .
- C=CCc1ccccc1OCC(O)CN(C(C)C)C(C)C (stereo not drawn)
  i, 3.8e-08, 1.1%, i, -1%[11.4 µM]
- Cc1cc(C)n2cc(CSC3=NCCS3)nc2n1
  i, 1e-09, -0.1%, i, 0%
- CCC(=O)N1CCN(C(=O)CC)C1c1ccccc1
  i, 9.5e-09, -0.5%, i, 0%[11.4 µM]
- Cc1ccc(Nc2nc(N)nc(CN3CCN(c4ccccc4F)CC3)n2)cc1
  i, 1.8e-09, 1.6%, i, -5%
- CS(=O)(=O)N1CCN(CC2CC3C=CC2C3)CC1 (stereo not drawn)
  i, 1e-09, 3.8%, i, 5%
- O=C(Nc1ccccc1N1CCN(c2ccccc2)CC1)c1cccc(F)c1
  i, 1.8e-08, 0.6%, i, ?
- CN(C)c1ccc(-c2cc(NCc3cccnc3)ncn2)cc1
  i, 1.9e-09, 2.0%, i, -4%
- CC(C)C12CN3CC(C(C)C)(CN(C1)C3c1ccc3c(c1)OCO3)C2=O (stereo not drawn)
  i, 4.7e-09, 0.9%, i, ?
- O=c1n(-c2ccccc2)c(=O)n2n1CC[C@H]1/C(=N\OCc3ccccc3)[C@H]3O[C@@H]3[C@@H](O)[C@@H]12
  ., ., -0.3%[11.5 µM], ., -5%[11.4 µM]
- CCC(C)[C@H](NC(=O)Nc1cccc(OC)c1)C(=O)OC (stereo partly drawn)
  i, 2.8e-08, 1.0%, i, 2%
- CCOC(=O)c1ccccc1NC(=O)Cn1cnc2c(cnn2-c2ccc(OC)cc2)c1=O
  i, 2.4e-09, 1.7%, i, 13%
- CCCCCOc1ccccc1C(=O)NCCCC(=O)O
  i, 1e-09, ., i, .
- CC(C)Nc1nc(NC(C)C)nc(Oc2ccc(/C=N/O)cc2)n1
  i, 9.7e-09, -1.0%, i, 4%
- CC(=O)NC(CCS(C)(=O)=O)C(=O)Nc1cccc2ccccc12 (stereo not drawn)
  ., ., 1.1%, ., -8%
- Cc1cccc(C(=O)NC2CCN(CC(=O)N3CCOCC3)CC2)c1
  i, 2.8e-09, -0.7%, i, 0%
- O=C1C=C(Nc2nc(C(=O)O)cc(=O)[nH]2)c2ccccc2C1=O
  i, 1.5e-09, 9.0%[11.5 µM], i, -2%[11.4 µM]
- O=C(NCc1ccc2c(c1)OCO2)c1cccs1
  i, 1.8e-08, -1.5%, i, 11%
- CCc1ccccc1N(CC)C(=O)c1cn(CC)c(=O)c2cc(OC)c(OC)cc12
  i, 6.5e-09, 0.1%, i, 5%[11.4 µM]
- Cc1ccc(S(=O)(=O)NCC(=O)N(CC(=O)NCc2ccccc2)CC2CCCO2)cc1 (stereo not drawn)
  i, 1.9e-08, -0.9%, i, 0%

At a glance, part of the list above.
The line under a structure holds: A488 fluor, A647 autofl, AID923, Resorufin autofl, TSHR agonist
- Cc1cc(C)n2cc(CSC3=NCCS3)nc2n1
  i, 1e-09, -0.1%, i, 0%
- CCC(=O)N1CCN(C(=O)CC)C1c1ccccc1
  i, 9.5e-09, -0.5%, i, 0%[11.4 µM]

(more compounds)
The line under a structure holds: A488 fluor, A647 autofl, AID923, Resorufin autofl, TSHR agonist
- Cc1ccc(-c2nnc3c4ccccc4c(C)nn23)cc1NC(=O)c1ccco1
  i, 1e-09, -1.8%, i, 11%
- COc1ccc(C2C(C(=O)Nc3ccccc3)=C(C)Nc3nc(CCCO)nn32)cc1 (stereo not drawn)
  i, 2.3e-09, 1.6%, i, 3%
- CCOc1ccc(CCNC(=O)C2CCCN(S(=O)(=O)c3c(C)n[nH]c3C)C2)cc1OCC (stereo not drawn)
  i, 1.8e-08, 1.4%, i, -3%
- O=C(CCCc1cccs1)Nc1nc2c(s1)CCCC2
  i, 1.4e-08, -1.0%, i, ?
- S=c1nc(-c2ccccc2)n(CCN2CCOCC2)c2c1CCCC2
  i, 1.7e-09, 0.2%, i, 2%
- CN1CCN(C(=O)c2ccccc2NC(=O)c2cccs2)CC1
  ., ., 2.0%, ., -5%
- Cc1ccc(-n2c(CSc3nc(C)cc(C)n3)nnc2SCC(=O)NCc2ccco2)cc1
  i, 1e-09, -0.1%, i, 7%
- CC(C)CNS(=O)(=O)c1ccc(CCC(=O)O)cc1
  i, 1e-08, 0.0%, i, -2%
- O=C(c1ncc[nH]1)c1ccco1
  i, 2.5e-08, 0.1%, i, 1%
- CCOCCn1c(N2CCN(c3ccccc3)CC2)nc2c1c(=O)n(C)c(=O)n2C
  i, 3.8e-08, -1.4%, i, 12%
- COc1cccc2cc(C(=O)Nc3cccc(C)n3)c(=O)oc12
  i, 4.7e-08, -0.1%, i, -6%
- O=C(Nc1nc2c(s1)CCCC2)C1COc2ccccc2O1 (stereo not drawn)
  ., ., -3.2%, ., ?
- O=C(O)c1oc2ccc(Br)cc2c1-n1cccc1
  i, 4.2e-08, 0.4%, i, .
